Screening data (PubChem BioAssay)
Lassa entry inh: qHTS for Inhibitors of binding or entry into cells for Lassa Virus; Lassa virus pseudotype entry inhibition, cell reporter; control for the full effect not named in the record; Potency, µM (series often up to 37.9 µM), without a hit: at the highest dose activity change, negative = inhibition, most hits filed as inhibitors; 300,000 tested, 1.2% active; AID 540256, 2011; active means well fitted inhibition curve with a large enough effect; inconclusive means small, poorly fitted or top-dose-only effect, or effect the other way; inactive means flat fitted curve, though single readings scatter; tested in HEK293 cells; further: on the % scale 0 is the no-effect control and ±100 the full control effect; nearly all actives have a fitted effect of over 50% in size; luciferase read-out
RE007 growth inh: qHTS Assay for Inhibitors of the HIV-1 protein Vpr. S. pombe RE007 Vpr strain, BacTiter-Glo ATP luminescence, 24 h; control for the full effect not named in the record. Potency, µM (highest dose often 92.2 µM), for the others: top-dose activity change, negative = less growth. 360,000 tested, 0.21% active; active = well fitted falling curve with a large enough effect; inconclusive = small, poorly fitted or top-dose-only effect; inactive = no such curve, though single readings can be large or run the other way;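 further: on the % scale 0 is the no-effect control and ±100 the full control effect; nearly all actives have a fitted effect of over 50% in size; the assay follows cell death caused by Vpr and the record does not say whether a fall means rescue or toxicity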
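Fission yeast strain RE007, carrying one chromosomally integrated HIV-1 vpr copy, was seeded at OD 0.01 in PMG+AL medium with 23 nL pinned compound. After 24 h at 30 °C and 99% humidity, viability was read by BacTiter-Glo luminescence.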
NS1 function inh: qHTS Assay for Inhibitors of Influenza NS1 Protein Function; S. cerevisiae slowed by influenza A NS1, growth recovery by OD600; Potency, µM (doses to about 46.1 µM), for the others: top-dose activity, positive = more growth; 270,000 tested, 0.4% active; AID 2326, 2010; further: actives are rising curves; nearly all actives have a fitted effect of over 50% in size
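A cell-based growth assay was used: compounds that relieve NS1-induced slow growth of budding yeast raise OD600. Assay medium was yeast nitrogen base with ammonium sulphate and -URA supplement, pH 6.0, with 2% galactose.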
Cruzain inh noDet: qHTS Assay for Promiscuous and Specific Inhibitors of Cruzain (without detergent). purified cruzain, Z-FR-AMC fluorescence, no detergent. Potency, µM, inactives show max response, negative = inhibition, usual class: inhibitors. 200,000 tested, 2.3% active. Cruzipain (Trypanosoma cruzi), P25779. AID 1476, 2009; active means well fitted curve in the direction sought with a large enough effect; inconclusive means small, poorly fitted or top-dose-only effect, or another doubt; inactive means no such curve, though single readings can be large; an effect the other way counts as inactive or inconclusive;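 further: plate controls were enzyme without inhibitor for no effect and buffer without enzyme for full effect; nearly all actives have a fitted effect of over 40% in size; top concentration of the series not given in the record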
Target sequence (P25779 123-467 limits assumed): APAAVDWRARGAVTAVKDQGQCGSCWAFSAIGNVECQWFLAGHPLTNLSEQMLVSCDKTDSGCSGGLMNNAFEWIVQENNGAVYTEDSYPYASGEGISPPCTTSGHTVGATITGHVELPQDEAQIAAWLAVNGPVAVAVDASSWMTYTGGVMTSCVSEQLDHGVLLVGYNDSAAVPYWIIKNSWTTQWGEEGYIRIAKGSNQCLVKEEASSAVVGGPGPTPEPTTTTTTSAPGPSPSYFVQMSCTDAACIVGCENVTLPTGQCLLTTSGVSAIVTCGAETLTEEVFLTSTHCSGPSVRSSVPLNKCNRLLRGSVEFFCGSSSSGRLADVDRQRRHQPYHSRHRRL
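Detergent-free condition (0.00005% Triton X-100) in acetate buffer pH 5.5 with DTT. 1.5 nM enzyme and compound were pre-mixed 15 min, then 2 uM Z-FR-AMC substrate added; reaction progress from fluorescence change between first and third reads (60 s).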
SARS PLpro yeast: qHTS of Yeast-based Assay for SARS-CoV PLP | S. cerevisiae expressing SARS-CoV PLpro, growth rescue; control for the full effect not named in the record | Potency, µM (top dose mostly 32.9 µM), inactives show at the highest dose activity, positive = growth rescue | 330,000 tested, 0.19% active | AID 485353, 2010; further: 0% is about no effect; nearly all actives have a fitted effect of over 55% in size; growth read by luminescence after 48 h
Cruzain Triton: qHTS Assay for Promiscuous and Specific Inhibitors of Cruzain (with detergent); 200,000 tested, 0.43% active; Cruzipain (Trypanosoma cruzi), P25779; AID 1478, 2009; Potency, µM, for the others: max response, negative = inhibition, actives largely listed as inhibitors; purified cruzain, Z-FR-AMC fluorescence, 0.01% Triton; active means well fitted curve in the direction sought with a large enough effect; inconclusive means small, poorly fitted or top-dose-only effect, or another doubt; inactive means no such curve, though single readings can be large; an effect the other way counts as inactive or inconclusive;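 further: plate controls were neutral wells for no effect and buffer without enzyme for full effect; nearly all actives have a fitted effect of over 40% in size; top concentration of the series not given in the record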
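Cysteine protease activity tested under reducing, mildly acidic conditions (100 mM sodium acetate pH 5.5, 5 mM DTT) plus 0.01% Triton X-100. Cruzain 1.5 nM; substrate Z-FR-AMC 2 uM; 15 min compound preincubation at room temperature.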
MARV entry inh: qHTS for inhibitors of binding or entry into cells for Marburg Virus; Potency, µM (highest dose often 37.8 µM), for the others: at the top dose activity change, negative = inhibition, most hits filed as inhibitors; 300,000 tested, 1.8% active; Marburg virus pseudotyped entry inhibition, cell reporter; control for the full effect not named in the record; about a third of the inactives were read at about 46 µM; active = well fitted inhibition curve with a large enough effect; inconclusive = small, poorly fitted or top-dose-only effect, or effect the other way; inactive = flat fitted curve, though single readings scatter; tested in HEK293 cells; about a fifth of its hits are not listed in these tables; further: on the % scale 0 is the no-effect control and ±100 the full control effect; luciferase read-out
2A StopGo: High Throughput Screening for Foot and Mouth Disease Virus Antivirals | AID 1159524, 2015 | 410,000 tested, 1.2% active | human cells with a luciferase reporter of 2A StopGo recoding; control for the full effect not named in the record | Potency, µM (series often up to 57.9 µM), for the others: at the top dose signal change, negative = less light; active = well fitted falling curve with a large enough effect; inconclusive = small, poorly fitted or top-dose-only effect; inactive = no such curve, though single readings can be large or run the other way; tested in HEK293T cells; further: on the % scale 0 is the no-effect control and ±100 the full control effect; nearly all actives have a fitted effect of over 45% in size; luciferase light after 4 h
Starred values were filed as active, the others as inactive; u = inconclusive; x = not tested or not shown; [ ] = dose if it differs, or a comment. Unless noted, the call rests on the fitted dose curve; in most records, active means well fitted rising curve with a large enough effect; inconclusive means small, poorly fitted or top-dose-only effect; inactive means no such curve, though single readings can be large or run the other way. Potency means the concentration at half of the fitted maximal effect.

Order of results: Lassa entry inh	RE007 growth inh	NS1 function inh	Cruzain inh noDet	SARS PLpro yeast	Cruzain Triton	MARV entry inh	2A StopGo
CN(Cc1nccs1)C(=O)C1CCC(=O)N(Cc2ccccc2F)C1 (stereo not drawn)
→ 0%	0%	1%	x	-1%	x	5%	6%
NC(=O)C1CCN(CC(=O)Nc2nc(-c3ccccc3)cs2)CC1
→ x	0%	8%	x	2%	x	x	22%
CC(C)c1ccc(-c2nn[nH]n2)cc1
→ -18%	-4%	-9%	-1%	6%	2.3%	-1%	20%
Cc1ccc(CCNC(=O)c2cccc(Nc3nc4ccccc4nc3-n3nc(C)cc3C)c2)cc1
→ 1%[46.1 µM]	x	x	-16%	x	-0.6%	5%[46.1 µM]	4%
O=C(Cc1ccc(F)cc1)Nc1ccc2[nH]ncc2c1
→ 4%	-11%	1%	x	-1%	x	0%	0%
Brc1ccc(-c2nnc(-c3cccc(Br)c3)o2)cc1
→ 13%	-3%	u	-6%	-3%	1.8%	u	45%[activator]
COCCN(CCOC)S(=O)(=O)c1ccc(Cl)nc1
→ x	-15%	1%	x	1%	x	x	-16%
CCOc1ncccc1C(=O)Nc1ccc(S(=O)(=O)N2CC(C)CC(C)C2)cc1 (stereo not drawn)
→ 0%[46.1 µM]	1%	x	x	2%	x	u	-4%
O=C(NCc1ccc2c(c1)OCO2)c1cc(S(=O)(=O)N2CCCCC2)ccc1F
→ -2%	-8%	8%	-5%	-2%	-1.0%	4%	24%
CC1CCC(NC(=O)c2nn(C)c3c2CSc2ccccc2-3)CC1 (stereo not drawn)
→ x	7%	11%	x	-9%	x	x	-8%
Cc1cc(C)c(C(=O)NCC(=O)c2ccccc2)c(C)c1
→ -1%[46.1 µM]	-11%	x	x	x	x	-6%[46.1 µM]	10%
Cn1c(=O)oc2cc(S(=O)(=O)N3CCC(C(=O)N4CC=C(c5ccccc5)CC4)CC3)ccc21
→ x	-8%	-17%	u	1%	3.8%	x	-21%
CCOc1cc(C(=O)O/N=C(\N)c2ccccn2)cc(OCC)c1OCC
→ x	-2%	-76%	x	-15%	x	x	-7%
CN1C2C=C3C(C#N)=C(N)C(C#N)(C#N)[C@@H](c4ccc(Cl)cc4)[C@@H]3C1CC2 (stereo partly drawn)
→ 15%	-11%	1%	-14%	2%	-2.9%	-2%	0%
Cc1cc(=O)oc2cc(OCc3ccc(S(=O)(=O)N4CCOCC4)cc3)ccc12
→ u	-8%	-31%	27%	1%	3.6%	-15%	0%
COc1cccc(C2=NOC(C(=O)NCCCn3ccnc3)C2)c1 (stereo not drawn)
→ 10%	-8%	0%	3%	2%	4.6%	-3%	6%
COc1cccc(NC(=O)N(Cc2c[nH]c3ccccc23)C2CCCCC2)c1
→ -16%[46.1 µM]	x	x	11%	x	-19%	u	13%
Cc1ccc2c(n1)CC(C)(C)C/C2=N\O
→ u	-13%	-1%	-5%	-2%	-1.2%	u	31%[activator]
O=C(Nc1cccc(Cl)c1)c1ccc(F)c(S(=O)(=O)NCc2cccs2)c1
→ u	0%	-9%	-10%	-12%	-9.1%	u	u
Nc1nc2c(nnn2Cc2ccc(Cl)c(Cl)c2)c(=O)[nH]1
→ -1%	13%	x	x	x	x	u	-9%

Some of the entries above in a different format.
mol	Lassa entry inh	RE007 growth inh	NS1 function inh	Cruzain inh noDet	SARS PLpro yeast	Cruzain Triton	MARV entry inh	2A StopGo
Brc1ccc(-c2nnc(-c3cccc(Br)c3)o2)cc1	13%	-3%	u	-6%	-3%	1.8%	u	45%[activator]
COCCN(CCOC)S(=O)(=O)c1ccc(Cl)nc1	x	-15%	1%	x	1%	x	x	-16%
CCOc1ncccc1C(=O)Nc1ccc(S(=O)(=O)N2CC(C)CC(C)C2)cc1 (stereo not drawn)	0%[46.1 µM]	1%	x	x	2%	x	u	-4%
O=C(NCc1ccc2c(c1)OCO2)c1cc(S(=O)(=O)N2CCCCC2)ccc1F	-2%	-8%	8%	-5%	-2%	-1.0%	4%	24%
CC1CCC(NC(=O)c2nn(C)c3c2CSc2ccccc2-3)CC1 (stereo not drawn)	x	7%	11%	x	-9%	x	x	-8%
Cc1cc(C)c(C(=O)NCC(=O)c2ccccc2)c(C)c1	-1%[46.1 µM]	-11%	x	x	x	x	-6%[46.1 µM]	10%
Cn1c(=O)oc2cc(S(=O)(=O)N3CCC(C(=O)N4CC=C(c5ccccc5)CC4)CC3)ccc21	x	-8%	-17%	u	1%	3.8%	x	-21%

More structures:
Order of results: Lassa entry inh	RE007 growth inh	NS1 function inh	Cruzain inh noDet	SARS PLpro yeast	Cruzain Triton	MARV entry inh	2A StopGo
CC(C)(C)c1cc(NC(=O)CSc2nnc(NCc3ccccc3)s2)n(-c2ccccc2)n1
→ -17%	9%	u	3%	-7%	-1.6%	u	u
O=C(NC1CCCCC1)C(c1ccc(F)cc1)N(C(=O)c1cccs1)c1ccc2c(c1)OCO2 (stereo not drawn)
→ -3%	-4%	-3%	u	-2%	2.8%	-1%	x
Cc1ccc(NS(=O)(=O)c2c(C)nc3sccn3c2=O)c(C)c1
→ x	-4%	-3%	x	2%	x	x	-1%
COc1ccc(-n2c(=S)[nH]c3cc(C(=O)NCc4ccco4)ccc3c2=O)c(OC)c1
→ -6%	-9%	13µM*	-5%	13%	-3.2%	-6%	-2%
CC(C)C(NC(=O)/C(=C/c1ccco1)NC(=O)c1ccc(Br)o1)C(=O)O (stereo not drawn)
→ x	2%	6%	x	-1%	x	x	10%
Oc1c(CN2CCN(c3ccccn3)CC2)cc(Cl)c2cccnc12
→ 13µM*	u	-30%	3%	-35%	-0.7%	7.1µM*	u
CCCCN(C)CCNC(=O)c1c(C)oc2ncnc(N3CCOCC3)c12
→ u	x	x	-11%	x	-0.8%	x	-6%
FC(F)(F)c1nc2ccccc2n2c(-c3c(Cl)cccc3Cl)nnc12
→ -10%	-4%	-24%	0%	-3%	3.4%	-12%[46.1 µM]	1%
O=C(O)CCCCCNC(=O)Nc1ccc2c(c1)OCCO2
→ 16%	26%	5%	5%	0%	1.9%	19%	18%
CN(c1nc(-c2ccccc2)cs1)C1CCS(=O)(=O)C1 (stereo not drawn)
→ 0%	-20%	-5%	-2%	-2%	-0.3%	10%	x
O=C(O)/C=C\C(=O)Nc1ccccc1C(=O)N1CCC(O)(c2ccc(Cl)cc2)CC1
→ -3%[46.1 µM]	-8%	x	x	x	x	-2%[46.1 µM]	-13%
Oc1ccc(Cc2ccccc2)c2cccnc12
→ -30%[46.1 µM]	u	x	x	x	x	u	-9%
N#CCCCSC1=C(C#N)C(c2ccccc2Cl)CC(=O)N1 (stereo not drawn)
→ -10%	16%	-7%	1%	-1%	1.1%	11%	-20%
Cc1onc(-c2ccccc2Cl)c1C(=O)Nc1nnc(-c2ccc(F)cc2)s1
→ 2%	-4%	u	0%	7%	-6.5%	3%	-27%
COc1ccc(-n2nnnc2C2CCN(S(=O)(=O)c3ccc(C(C)(C)C)cc3)CC2)cc1
→ -4%[46.1 µM]	x	x	-3%	x	0.7%	-7%[46.1 µM]	-7%
O=C(NN=C(Cc1ccccc1)Cc1ccccc1)c1ccccc1O
→ 7%[46.1 µM]	-21%	x	x	-1%	x	u	-2%
CCCCc1ncc(CN2CCC(n3nccc3NC(=O)c3ccccc3Cl)CC2)[nH]1
→ 1%	-10%	-8%	x	2%	x	u	-17%
CC(=O)N1CCN(S(=O)(=O)c2cccc(C(=O)Nc3nc4c(s3)CCCC4)c2)CC1
→ -24%	-3%	5%	u	0%	-9.0%	u	-17%
O=C(C[n+]1ccccc1)c1ccc(Cl)cc1
→ x	-25%	0%	x	-1%	x	x	-1%
O=C(NC1CCN(C(=S)Nc2ccc(Cl)cc2)CC1)C1CCCCC1
→ x	19%	22%	x	1%	x	2%[46.1 µM]	14%
Cc1ccc2nc(NC(=O)c3ccc(Br)o3)sc2c1
→ x	-11%	-7%	x	-2%	x	x	26%
Cc1cc(Nc2cccc([N+](=O)[O-])c2)n2c(nc3ccccc32)c1C#N
→ 6.3µM*	-12%	15%	u	-20%	-0.2%	3.2µM*	u
CCOc1ccccc1CNC(=O)c1ccc(CS(=O)Cc2cccc(Cl)c2)o1 (stereo not drawn)
→ -1%[46.1 µM]	x	x	17%	x	-5.5%	x	4%
O=C(COC(=O)c1cc(-c2cccc(Br)c2)nc2ccccc12)NCC1CCCO1 (stereo not drawn)
→ -30%[46.1 µM]	-14%	-13%	x	1%	x	u	-10%
CCc1ccc(-n2nc3cc(C)c(NC(=O)c4cccc5ccccc45)cc3n2)cc1
→ 7%[46.1 µM]	x	x	2%	x	2.3%	u	4%
Cc1ccccc1NC(=S)N/N=C1\CC(C)(C)Oc2ccc(O)cc21
→ u	17%	x	x	6%	x	u	-23%
CCCCC(=O)Nc1cccc(NC(=S)NC(=O)Cc2ccccc2)c1
→ u	4%	-3%	-1%	-1%	-23%	17%	-9%
CNC(=O)NC(=O)C(NC1CCCc2ccccc21)c1ccccc1 (stereo not drawn)
→ -20%[46.1 µM]	2%	-6%	x	2%	x	u	16%
O=[N+]([O-])c1ccc(-c2nc(-c3ccncc3)no2)cc1
→ u	-8%	-43%	x	-1%	x	u	29%
COc1ccc(OC)c(C(=O)c2ccc(C(=O)Nc3ccccc3)cc2)c1
→ -1%	x	-3%	5%	-2%	-3.7%	u	-23%
O=C(c1cc(F)c(F)cc1Cl)N1CCN(c2ncccn2)CC1
→ x	15%	13%	x	4%	x	x	-17%
